# Bioassay records from PubChem BioAssay.
# TRPML1 ag: activates the human TRPML1 channel; 0.12% of 410,000 active; TRPML1-expressing cells, Ca2+ dye fluorescence, FDSS; host cell line not named in the record; reference of the full effect not given here; activation, % (concentration not given with the values); Q9GZU1; in the data active = activation above about 50%; inconclusive = about 30% to 50%; inactive = below about 30%; further: 0% is about no effect; the text of the record puts the active cut at 80%
# Target sequence (Q9GZU1 whole entry, looked up): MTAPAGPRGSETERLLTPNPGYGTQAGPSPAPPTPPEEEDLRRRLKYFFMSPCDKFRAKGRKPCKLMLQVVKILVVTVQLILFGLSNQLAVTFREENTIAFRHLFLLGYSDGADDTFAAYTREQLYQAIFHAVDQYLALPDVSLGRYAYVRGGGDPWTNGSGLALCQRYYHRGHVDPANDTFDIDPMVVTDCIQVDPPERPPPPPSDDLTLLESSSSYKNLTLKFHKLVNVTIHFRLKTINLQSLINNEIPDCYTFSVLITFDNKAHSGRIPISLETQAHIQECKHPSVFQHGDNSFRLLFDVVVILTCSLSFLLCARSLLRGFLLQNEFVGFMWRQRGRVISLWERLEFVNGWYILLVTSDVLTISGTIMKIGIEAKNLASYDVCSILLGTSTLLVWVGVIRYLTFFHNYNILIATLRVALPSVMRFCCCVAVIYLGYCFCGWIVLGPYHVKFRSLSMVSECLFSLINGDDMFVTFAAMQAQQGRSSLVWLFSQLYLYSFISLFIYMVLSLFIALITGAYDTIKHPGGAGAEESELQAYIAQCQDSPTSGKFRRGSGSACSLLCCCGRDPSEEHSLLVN
#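 Calcium fluorescence on an FDSS kinetic reader gave the read-out. Tet-induced TRPML1-DL cells were plated overnight, dye-loaded (Ca8 with quencher, 45-90 min, room temperature, dark), then read 110 s after compound addition, and again 110 s after 4uM final 54-4 (EC80).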
# ClpP mod: qHTS Assay for Activators of ClpP. ATP-dependent Clp protease proteolytic subunit (Bacillus subtilis (strain 168)), P80244. purified B. subtilis ClpP, FRET peptide cleavage, 20 min. Potency, µM (series often up to 57.5 µM), for inactives: at the highest dose activity change, negative = active. 1.9% of 340,000 active; active = well fitted falling curve with a large enough effect; inconclusive = small, poorly fitted or top-dose-only effect; inactive = no such curve, though single readings can be large or run the other way; further: potency means the concentration at half of the fitted maximal effect; the source files actives as falling curves though it sought activators and does not explain the sign; nearly all actives have a fitted effect of over 65% in size; many hits overshoot -100%
# Target sequence (P80244 whole entry, looked up): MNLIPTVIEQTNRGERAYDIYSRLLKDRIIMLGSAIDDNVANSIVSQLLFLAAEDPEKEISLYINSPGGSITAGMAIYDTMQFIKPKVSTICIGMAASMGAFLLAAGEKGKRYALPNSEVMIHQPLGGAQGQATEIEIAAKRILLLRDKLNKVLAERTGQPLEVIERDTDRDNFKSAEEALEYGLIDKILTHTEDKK
#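 Purified B. subtilis ClpP, 10 microg/mL final in Tris/HCl pH8 with KCl, BSA, glycerol and Tween-20, cleaved an Abz/nitrotyrosine-quenched decapeptide. Fluorescence (ex 320, em 430) was read at 0 and 20 min at room temperature. Delta was normalized to 5.8 microM ADEP and DMSO/no-enzyme controls.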
# Sfp inh: inhibitors of Bacillus subtilis Sfp phosphopantetheinyl transferase; Biochemical Sfp PPTase activity, qHTS; Potency, µM, without a hit: max response, negative = inhibition, usual class: inhibitors; Q9F4F7; 3.5% of 310,000 active; active means well fitted inhibition curve with a large enough effect; inconclusive means small, poorly fitted or top-dose-only effect, or another doubt; inactive means no such curve, though single readings can be large or run the other way;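 further: the enzyme is Sfp with the accession as filed and its product quenches rhodamine fluorescence; potency means the concentration at half of the fitted maximal effect; 0% = enzyme reaction without inhibitor and -100% = no enzyme wells; top concentration of the series not given in the record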
#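 Compounds were incubated with enzyme (final 15 nM) for 15 min at room temperature before substrate addition started the reaction. Fluorescence at 525 nm excitation, 598 nm emission was recorded immediately and after 30 minutes.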
# PINK1 expr mod: changes PINK1 expression; PINK1 immunofluorescence, high-content cytometry, 24 h; Potency, µM (doses to about 76.6 µM), for inactives: at the highest dose activation (PINK1 increase), most hits filed as activators; 0.2% of 410,000 active; active = well fitted activation curve with a large enough effect; inconclusive = small, poorly fitted or top-dose-only effect; inactive = flat fitted curve, though single readings scatter; cell line not stated here;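 further: potency means the concentration at half of the fitted maximal effect; % of control where 0% means no effect; nearly all actives have a fitted effect of over 65% in size; a mitochondrial uncoupler was the plate control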
#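 PINK1 protein, normally rapidly degraded, was detected by immunofluorescence after 24 hour compound treatment of a stable cell line. Titration data (5 concentrations) came from laser-scanning cytometry, with CCCP-treated wells as controls.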
# TRPML1 inh: blocks the human TRPML1 channel; TRPML1-inducible cells, Ca2+ dye fluorescence, FDSS; stronger effect = lower value; inhibition of EC80 agonist-evoked calcium signal; 0.02% of 390,000 active; activity change, negative = inhibition, % (no concentration beside the values); AID 624415; Q9GZU1; in the data active means activity change below about -50%; inconclusive means about -30% to -50%; inactive means above about -30%;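 further: stimulus is agonist 54-4 at its EC80 concentration; on the % scale 0 is the no-effect control and ±100 the full control effect; compound concentration not given in the record; the text of the record puts the active cut at -80%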
#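 TRPML1-DL cells, Tet-induced overnight (~16 h, 37 °C) at 1,500 cells/well, were loaded with Ca8 no-wash dye plus quencher for 45-90 min at room temperature. Compounds were pinned during FDSS kinetic reading; agonist 54-4 at EC80 (4 uM final) then added.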
# Menin-MLL FL inh: inhibitors of human menin-MLL interaction, wild-type MLL peptide. 290,000 tested, under 10 active. Fluorescence polarization, fluorescein-MLL peptide displacement from menin. FP activity change, % at 61.4 µM. AID 1766; inconclusive = falling polarisation curve, or a change in total fluorescence; inactive = total fluorescence flat and polarisation flat or rising; no compound was filed as active; the % refers to the polarisation; negative = inhibition;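 further: % of control where 0% means no effect; inhibitors lower the polarisation; unlabelled MLL peptide was the positive control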
# TRPV1 potentiator: human TRPV1 potentiation; TRPV1-expressing cells, Fluo-8 calcium influx, capsaicin EC20 potentiation; host cell line not named in the record; control for the full effect not named in the record; 0.02% of 320,000 active; potentiation, % at 8.33 µM; Q8NER1; AID 540277; active means potentiation above 80%; inconclusive means 30% to 80%; inactive means below 30%; further: 0% is about no effect
#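 Fluo-8 calcium influx in TRPV1-expressing cells, kinetic read (ex 480/em 520 nm). Compound added and read 3 min for agonist activity, followed by capsaicin at EC20 final and 2 min further read for enhancement.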
# * marks the source's active call; other numbers are inactive results; ? = inconclusive; · = not tested or not shown; [ ] = dose if it differs, or a comment.
SMILES,TRPML1 ag,ClpP mod,Sfp inh,PINK1 expr mod,TRPML1 inh,Menin-MLL FL inh,TRPV1 potentiator
COc1ccccc1NC(=O)c1c(Nc2ccccc2F)sc(C(=O)Nc2cccc(Cl)c2)c1N,3.1,-1.7%,15.0%,?,6.0,10.6,3.0
Clc1cccc(CN2CCN(Cc3nc(CCc4ccccc4)no3)CC2)c1,-0.5,2.1%,3.9%,1.7%,2.7,-1.4,-12.1
CN(C(=O)c1cc(S(=O)(=O)N2CCc3ccccc32)cn1C)C1CCCCC1,-0.1,-3.1%,0.0%,0.9%,-4.9,-4.5,-6.7
Cc1ccc(-c2n[nH]c(=S)n2Cc2ccccc2)cc1,1.0,-26.5%,5.2%,-11.3%[38.3 µM],12.5,-0.6,-10.3
Cc1nc(CC(=O)Nc2cccc(C)c2C)cs1,1.4,-0.8%,·,0.0%,6.4,·,·
C[C@@H]1CN([C@H](C)CO)C(=O)Cc2cc(NC(=O)Nc3ccccc3)ccc2O[C@@H]1CN(C)Cc1ccc2c(c1)OCO2,1.4,-5.9%,·,0.8%,-3.4,·,·
CCOC(=O)C1CCN(c2nc3c(S(=O)(=O)c4ccccc4)nnn3c3ccc(Cl)cc23)CC1,-0.7,-4.1%,·,-0.7%,-13.0,·,·
COc1ccc(/C=C/C(=O)NC(=S)N2CCN(c3ccccn3)CC2)cc1OC,-0.9,6.8%,?,-0.1%,-0.7,-3.5,-6.1
Cc1c(N=C2C=CC(=O)c3ccccc32)c(=O)n(-c2ccccc2)n1C,-0.8,·,17.8µM*,-1.0%,0.0,0.3,-18.1
CC(C)COc1ccccc1C1CC(=O)Nc2cc3c(cc21)OCO3 (stereo not drawn),0.1,-2.1%,·,-1.3%,42.2,·,·
COC(=O)CN(c1ccc(OC)cc1)S(=O)(=O)c1ccc(OC)c(OC)c1,-0.5,0.5%,23.6%,-1.1%,8.5,2.2,-5.4
C=CCNC(=S)NNC(=O)c1cc(Cl)ccc1OC,1.1,·,-2.3%,-1.9%,-18.7,0.9,3.6
CNC(=S)N1CCN(c2ccccn2)CC1,-0.5,-15.4%,-9.9%,1.0%,-16.1,1.4,5.1
O=C1NCCN1CCNS(=O)(=O)c1ccc(F)cc1,-0.3,0.7%,3.7%,2.8%,3.1,6.4,1.3
Cc1oc(-c2ccccc2)nc1C(=O)Nc1nccs1,0.4,-24.3%,-0.3%,10.8%,45.5,1.7,-20.7
N#CC1=C(N)OC2=C(C(=O)CCC2)C1Cc1ccccc1 (stereo not drawn),0.5,-1.3%,·,0.4%[38.3 µM],-10.7,·,·
COc1ccc(C(=O)NC23CC4CC(CC(C4)C2)C3)cc1OC,0.0,-0.1%,4.4%,1.6%,-5.8,-4.0,-7.0
CC(C)(C)NC(=O)C(c1ccncc1)N(C(=O)c1csnn1)c1cccc2ccccc12 (stereo not drawn),-0.6,-1.9%,12.8%,2.9%,-5.7,-1.9,3.7
COc1ccc(N(C(=O)c2snc(C(N)=O)c2N)C(CC(C)C)C(=O)NCC2CCCO2)cc1 (stereo not drawn),-0.2,·,15.5%,0.0%,-9.7,0.8,-37.2
CCOC(=O)C1(Cc2cccc(OC)c2)CCN(Cc2cnc(C)s2)CC1,0.0,·,-5.3%,-0.8%,5.6,-6.8,-7.3
COc1ccc(NC(=O)c2cccc3c(-c4cnn(C)c4)coc23)cc1,-0.1,-3.6%,·,-0.5%,16.2,·,·
COc1ccc(Cl)cc1N(CC(=O)NCCSc1ccccn1)S(=O)(=O)c1ccccc1,-0.1,·,14.2%,0.1%,3.0,3.5,-11.0
O=C1C2C3C=CC(C3=C(c3ccccc3)c3ccccc3)C2C(=O)N1Cc1ccccc1 (stereo not drawn),-0.6,-16.8%,50.1µM*,-1.4%,1.8,-0.9,11.4
Cc1cc(C)n(C2CC(=O)N(c3cc(Cl)cc(Cl)c3)C2=O)n1 (stereo not drawn),1.0,-0.8%,14.0%,0.9%,11.0,4.0,·
COC(=O)C1=C(C)NC(=S)NC1c1ccco1 (stereo not drawn),-0.1,·,-25.8%,0.7%,2.6,6.8,-3.6
COc1c(C)cc(S(=O)(=O)NC2CC(C)(C)NC(C)(C)C2)c(C)c1C,-0.6,1.9%,2.4%,0.7%,18.2,0.7,-13.2
CCn1c(=O)n(CC(=O)N(C)Cc2ccccc2)c(=O)c2ccccc21,1.1,-28.0%,-8.0%,0.6%,3.6,4.1,-12.5
O=C(C[C@H]1C/C=C/CC[C@@H](Cc2ccc(F)cc2)C(=O)OC[C@H](c2ccccc2)NC1=O)NCCO,-0.3,-0.8%,·,0.0%,11.9,·,·
Fc1ccccc1/C=C/c1ccc2ccccc2n1,0.1,-27.8%,-20.2%,9.5%,9.0,4.5,-15.0
Cc1cccc(C(=O)NCc2nnc(SC(C)C(=O)Nc3nnc(C)s3)n2C)c1 (stereo not drawn),0.5,-3.7%,·,-2.4%,?,·,5.0
COc1ccc(/C=N/NC(=O)c2ccc(Cn3cc([N+](=O)[O-])cn3)o2)cc1O,-0.6,-5.8%,-5.5%,-1.4%,-12.1,0.9,29.2
COCCOc1cc(N)c(Cl)cc1Cl,-0.1,·,19.1%,-1.7%,3.8,-0.6,11.9
CCc1ccccc1NC(=O)CSc1nnc(-c2nonc2NC(C)=O)n1C,-0.7,0.0%,·,-1.3%,-13.8,·,·
O=C(Nc1ccc(Cl)c(S(=O)(=O)N2CCOCC2)c1)[C@@H]1CCCN1C(=O)c1cccs1,-0.5,-4.4%,·,1.1%,0.3,·,6.3
O=C(NC1CCCC1)C(c1ccncc1)N(C(=O)c1csnn1)C1CCCC1 (stereo not drawn),-0.3,0.5%,56.2µM*,-0.5%,-0.5,1.1,-9.4
Cc1ccc(S(=O)(=O)c2nnn3c2nc(NC2CCCCCC2)c2sccc23)cc1C,2.4,-19.4%,·,0.3%,10.0,·,·
O=C(NCc1ccc2c(c1)OCO2)C1CCN(S(=O)(=O)c2cccs2)CC1,-0.9,-0.2%,-0.7%,-2.5%,-12.8,1.7,-15.6
CNc1nc2cc([N+](=O)[O-])c([N+](=O)[O-])cc2nc1NC,10.1,-0.2%,7.7%,4.9%,-8.2,0.6,?
COc1ccc(C(=O)N2CCN(c3cccc(Cl)c3)CC2)cc1S(=O)(=O)NC1CC1,0.6,-0.3%,·,4.8%,3.3,·,-3.5
COc1cc(NC(=O)c2ccc3c(c2)S(=O)(=O)N=C2CCCCCN23)cc(OC)c1,-0.3,2.9%,·,-0.5%,8.8,·,10.4
CCN1c2ccccc2-c2nc3ccccc3n2C1c1ccco1 (stereo not drawn),3.6,20.4%,-17.4%,-1.4%,12.4,2.6,-13.4
CC(=O)Nc1ccc(C(=O)N2CCCCC2c2cc(C(=O)Nc3cccc4c3CCCC4)no2)cc1 (stereo not drawn),-0.2,0.0%,·,3.7%,·,·,·
COc1cc(C(=O)OCCCN=C2NS(=O)(=O)c3ccccc32)cc(OC)c1OC,0.0,·,3.0%,-0.6%,-23.5,3.8,12.1
Cc1cccc(NC(=O)COC(=O)CN2CCCCCC2=O)c1C,0.3,-2.4%,·,0.1%,-10.0,·,·
C=C(Br)Cn1c(CCC)nc2ccccc21,0.7,-0.1%,0.9%,-1.5%,-13.5,4.6,-3.1
O=C(CCN1C(=O)c2ccccc2C1=O)C1=NN[C@@H]2C(=O)N(c3ccc4c(c3)OCCO4)C(=O)[C@H]12,-0.6,0.2%,14.4%,3.5%,-0.2,-2.2,-1.4
COc1cccc(-c2csc3nc[nH]c(=O)c23)c1,1.8,-1.5%,?,-0.2%,-2.8,-1.5,-11.5
CN(c1ccc(C(=O)N2CCN(c3ccc(F)cc3)CC2)cc1)S(C)(=O)=O,-0.1,6.7%,5.4%,-0.4%,8.1,-5.6,-4.9
O=C(c1c[nH]c2ccc(S(=O)(=O)Nc3ccccc3F)cc2c1=O)N1CCCCCC1,1.8,-30.0%,·,5.1%,12.1,·,·
COc1ccc(Cl)cc1NC(=O)c1ccccc1C,-0.7,0.8%,3.6%,-0.2%,2.3,0.7,-14.4
COCc1ccc(-c2c(-c3ccc(OC)cc3)oc(=O)c3cc(OC)c(OC)cc23)cc1,-0.6,31.6µM*,·,-0.1%,-1.4,·,·
Cc1cc(C)c(NC(=S)NCCCSC2CCCCC2)c(C)c1,3.1,·,44.7µM*,1.0%,16.0,3.4,-9.7
Cc1ccc(C)c(NC(=O)COC(=O)c2ccc(S(=O)(=O)N3CCCCC3)cc2)c1,-0.2,-26.1%,·,-2.3%,13.6,·,-9.0
CN(Cc1ccc(F)cc1)C(=O)c1cc(COc2ccc(-n3cncn3)cc2)on1,0.1,-17.7%,1.9%,0.8%,5.9,·,-8.5
CCOP(=O)(OCC)c1nc(/C=C/c2ccccc2)oc1NCc1ccc(OC)cc1,-0.8,?,?,0.9%[38.3 µM],1.1,-0.8,5.1
COc1cccc(/C=N/Nc2nc(Nc3ccccc3)nc(-n3nc(C)cc3C)n2)c1O,1.3,-1.8%,20.6%,-4.3%,-52.4*,1.4,6.9
CN(C)C(CNc1ccc(C(F)(F)F)cn1)c1ccccc1 (stereo not drawn),0.1,·,-5.8%,4.3%,-10.4,-5.5,-4.9
COc1cc(NC(=O)C2CC(=O)N(Cc3ccco3)C2)cc(OC)c1 (stereo not drawn),2.3,1.5%,·,-0.8%,18.6,·,3.4
CCC(c1nnnn1-c1ccc2c(c1)OCCO2)N1CCN(c2ccccc2OC)CC1 (stereo not drawn),-0.4,-4.3%,·,-0.7%,·,·,·

# This is a random part of the collection. Share with any hit: about 4.4%.
